Screens as filed in PubChem BioAssay.
PrP 5UTR inh: inhibition of PrP 5' UTR reporter expression. cell-based PrP 5' UTR mRNA reporter, plate reader. inhibition, % (test concentration not listed). 340,000 compounds, 0.35% hits;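 active = every replicate at 50% or more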;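 note: 0 = median of the neutral control wells; tested in H4 reporter cells; numbers are from one replicate; inactives centre near -14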
Autofluor counter: counter-screen for toxin protease inhibitors: compound fluorescence; compound autofluorescence counterscreen, microsphere flow cytometry; active compounds read high; fluorescence intensity (concentration not given with the values); 360,000 compounds, 3.1% hits;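 active = at least 3 SD above the mean of all compounds, about 16000 in these data; inconclusive = too few beads counted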;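 note: 100 nL of 1 mM stock went into each well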
Active calls of the source: *; ? = inconclusive.

item | smiles | PrP 5UTR inh | Autofluor counter
1 | CC(C)C[C@@H](CN)NC(=O)c1nc[nH]c1C(=O)N[C@@H](CC(C)C)C(=O)CNC[C@H](C)NC(=O)c1nc[nH]c1C(=O)N[C@@H](CC(C)C)C(=O)O | 7 | 2952
2 | CN1OC[C@@H]2CN[C@H](c3cccc(-c4ccccc4)c3)C[C@@H]21 | -22 | 3245
3 | CC(COc1ccc(/C=C/c2ccccc2)cc1)[N+](C)(C)C (stereo unspecified) | -9 | 4843
4 | O=C(C[C@@H]1C/C=C\C[C@H](Cc2ccc(F)cc2)C(=O)OC[C@@H](Cc2c[nH]c3ccccc23)NC1=O)NCCO | -22 | 3721
5 | C#CCOCCOCCOCCNc1nc(N2CCN(C(=O)[C@H](CCCN=C(N)N)n3cc(C(N)[C@@H](C)CC)nn3)CC2)nc(N2CCN(C(=O)[C@H](CC(N)=O)n3cc([C@@H](N)C(C)C)nn3)CC2)n1 (stereo partly specified) | -28 | 3117
6 | CCOc1ccc(N(CC(=O)N/N=C/c2ccccn2)S(=O)(=O)c2ccc(Cl)cc2)cc1 | -4 | 6853
7 | CC(C)(C)S(=O)(=O)N1Cc2ccc(CO)cc2[C@H]1CCO | -13 | 3075
8 | CC[N+]1(C)CCC(O)(/C=C/c2ccccc2)C(C(=O)/C=C/c2ccccc2)C1 (stereo unspecified) | -22 | 3334
9 | C=CC[C@@H](CC(=O)N(CCO)Cc1ccccc1)C(=O)N[C@@H](COC(=O)[C@@H](CC=C)CC(=O)OC(C)(C)C)Cc1c[nH]c2ccccc12 | -1 | 2897
10 | C[C@H](CO)N1C[C@H](C)[C@@H](CN(C)S(=O)(=O)c2cn(C)cn2)Oc2ccc(NC(=O)Nc3ccccc3)cc2C1=O | 2 | 3779
11 | COC(=O)C1=C(c2ccccc2)C[C@@H]2CC[C@H]1N2C | -23 | 4320
12 | CCOC(=O)[C@@H]1CSCCS(=O)(=O)N1Cc1ccccc1Br | -14 | 2947
13 | COc1ccc2c(c1OC)CN1CCc3cc4c(cc3[C@H]1C2)OCO4 | -6 | 3506
14 | CC(C)C(=O)Nc1cccc(COc2ccccc2CN(Cc2ccccc2)C(=O)OC(C)(C)C)c1 | -18 | 3614
15 | CCC1(C)NC(=O)N(/N=C/c2cc(OC)c(O)c(OC)c2)C1=O (stereo unspecified) | 1 | 4236
16 | C=CCC(C(=O)Oc1c(C(C)(C)C)cc(C)cc1C(C)(C)C)c1ccccc1 (stereo unspecified) | -11 | 3321
17 | C/C(=N\NC(=O)c1cc(C)nc2ccccc12)c1ccccn1 | 30 | 5841
18 | O=C(NC1CC1)c1cccc(NC(=O)C2CC2)c1 | -14 | 3771
19 | COC(=O)C1=C(c2ccc(C(C)=O)cc2)C[C@@H]2CC[C@H]1N2C(=O)NCc1ccco1 | -16 | 4051
20 | CCOC(=O)/C(=N\Nc1ccc(Br)cc1)N1CCN(c2ccccc2OC)CC1 | -24 | 4384
21 | O=C(Cc1nc2ccccc2[nH]1)N/N=C/c1ccccc1 | -4 | 2413
22 | CCCCCCCCCCCCCCC(O)C[N+](C)(CCO)CCO (stereo unspecified) | -1 | 4049
23 | S=C(NCCc1cccc(Cl)c1)NCc1ccccc1 | -13 | 6393
24 | O=C(Cc1cccc(NC(=O)C2CCCN(C(=O)CCc3ccccc3)C2)c1)Nc1ccc(C(=O)N2CCOCC2)cc1 (stereo unspecified) | -14 | 3851
25 | O=C(CCSC1=NCCCN1)c1ccc(F)cc1 | -15 | 3723
26 | CCOC(=O)[C@@H]1[C@H]2COc3cc(OC)ccc3[C@H]2N2C(=O)N(c3ccc(OC)cc3)C(=O)[C@]12C | -14 | 3805
27 | O=C(NCCc1ccccc1)c1cccc(NC(=O)c2ccccc2)c1 | -53 | 3070
28 | COc1ccc([C@H]2CC(=O)C=C(c3cc(C)ccc3OC)C2)cc1 | -30 | 3676
29 | C[C@@H](NC(=O)/C(C#N)=C/c1ccc(O)c(O)c1)c1ccccc1 | -26 | 5964
30 | CCC1C(c2cc(OC)c(OC)c(OC)c2)c2cc3c(cc2OC1N1CCCC1)OCO3 (stereo unspecified) | -34 | 3364

Other compounds
item | smiles | PrP 5UTR inh | Autofluor counter
31 | CC[C@H](C)[C@@H](C(=O)NCCCCCCCCCCC(=O)N1CCNCC1)n1cc(CCCCN=C(N)N)nn1 | -10 | 4144
32 | Cc1noc(C)c1NC(=O)Nc1ccc2c(c1)C(=O)N([C@H](C)CO)C[C@H](C)[C@@H](CN(C)C(=O)Nc1c(C)noc1C)O2 | -21 | 3652
33 | C[C@H](CO)N1C[C@H](C)[C@@H](CN(C)C(=O)Nc2ccc3c(c2)OCO3)Oc2c(NC(=O)C3CCCCC3)cccc2C1=O | -11 | 3989
34 | Oc1cccc(-c2nnc(-c3cccc(O)c3)nn2)c1 | 7 | 4213
35 | COC(=O)[C@H](Cc1ccccc1)NCCCn1cnc(C(=O)Nc2ccc(C)c(C)c2)n1 | 30 | 3629
36 | C=CCC[C@@H](Cc1ccc(F)cc1)C(=O)OC[C@H](C)NC(=O)[C@H](CC=C)CC(=O)N(CCO)Cc1ccccc1 | -15 | 3128
37 | CCN1C(=NCc2cc(OC)c(OC)c(OC)c2)N[C@@H](c2cccc(C(F)(F)F)c2)C(C(=O)OC)=C1C | -10 | 3212
38 | COCc1ccccc1C1=CC(=O)C[C@H](c2ccc(F)cc2)C1 | -23 | 4205
39 | CN1C=CC(=O)[C@@H](O)[C@H]1c1ccccc1Br | -12 | 3754
40 | C[C@@H]1NC(=O)c2cc([N+](=O)[O-])cc(I)c2NCCCC[C@@H](C(N)=O)NC(=O)[C@H](CCC(=O)O)NC1=O | -14 | 4118
41 | O=C(N[C@H]1CCC(=O)N([C@H](CSc2ccc(Br)cc2)Cc2ccccc2)CC1)OCc1ccccc1 | -23 | 3070
42 | C/C=C/C1=CC(=O)C[C@H](c2ccc3c(c2)OCO3)C1 | -7 | 4002
43 | Cc1cc2c(cc1C)N[C@]1(C[C@H]3CCCC(=O)N4CC[C@@H](C1)[C@@H]34)C(=NC(C)(C)CC(C)(C)C)N2 | 5 | 3706
44 | COc1ccc(NC(=O)Nc2ccc3c(c2)C(=O)N([C@H](C)CO)C[C@H](C)[C@@H](CN(C)C(=O)Nc2ccc(C(F)(F)F)cc2)O3)cc1 | -22 | 3821
45 | O=c1[nH]c(=O)c2nnc(N/N=C\c3ccc(O)cc3)nc2[nH]1 | -13 | 2490
46 | C[C@@]12C(=O)N(Cc3ccc(Cl)cc3)CC(=O)N1[C@H]1c3ccccc3OC[C@@H]1[C@@H]2c1ccccc1 | -7 | 4069
47 | Oc1ccc(C[C@H]2CNC(=S)N2CC2CCCN2C[C@H](Cc2ccc(O)cc2)N2C[C@H](Cc3ccc(O)cc3)N(CC3CCCCC3)C2=S)cc1 (stereo partly specified) | 4 | 3124
48 | CCCSc1ccc([C@@H]2[C@H]3C(=O)N(CC)C(=O)[C@H]3[C@]3(C(=O)OC)CCCN23)cc1OC | -24 | 3529
49 | O=C1/C(=C\c2ccccc2)CCC/C1=C/c1ccccc1 | -46 | 3848
50 | COc1ccc(/C=C/c2c(-c3ccccc3OC)sc3ccccc23)cc1OC | -12 | 4245
51 | COc1ccc([C@H]2CC(=O)C=C(c3ccc(C(=O)O)cc3)C2)cc1OC | -6 | 3908
52 | COc1cc(Br)c(CC2c3cc(OC)c(OC)cc3CCN2C)cc1OC (stereo unspecified) | -8 | 3117
53 | CC(C)C[C@H]1CNC(=O)C(=O)N1CC1CCN(CC2CCC(C(C)(C)C)CC2)CC1 (stereo partly specified) | -16 | 3979
54 | CCc1cc2c(cc3c(=O)n(CC(=O)NCCCN4CC(C)CC(C)C4)ncn32)s1 (stereo unspecified) | -16 | 4374
55 | CN(CC(=O)O)Cc1oc(CO)cc(=O)c1O | -9 | 3005
56 | O=C1CCCC/C=C\C[C@H](CC(=O)N(CCO)Cc2ccccc2)C(=O)NCCO1 | -24 | 4095
57 | Cc1cccc(/C=N/NC(=O)C[n+]2ccccc2)c1 | -17 | ?
58 | CNN/C(N=Cc1ccc([N+](=O)[O-])s1)=N\S(=O)(=O)c1cc(C)c(Cl)cc1SCc1ccccc1 | -20 | 3539
59 | O=C(CCNC(=O)c1ccco1)NCc1ccc(F)cc1 | -11 | 3974
60 | C#CCOCCOCCOCCNc1nc(N2CCN(C(=O)[C@H](CCCCN)n3cc(CN)nn3)CC2)nc(N2CCN(C(=O)[C@H](CCCCN)n3cc([C@@H](N)[C@H](C)CC)nn3)CC2)n1 | -5 | 4042

Remaining list, next part.
item | smiles | PrP 5UTR inh | Autofluor counter
61 | CC(CC(C#N)(c1ccccc1)c1ccccc1)N1CCOCC1 (stereo unspecified) | -16 | 3683
62 | CC(=O)N1C[C@H]2CON(C)[C@H]2C[C@H]1c1cccc(-c2ccccc2C)c1 | -15 | 4068
63 | C[C@H]1COC(=O)CCCC/C=C\C[C@H](CC(=O)N(CCO)Cc2ccccc2)C(=O)N1 | -18 | 3385
64 | COc1cccc(/C=N/Nc2snc(SC)c2C#N)c1 | -64 | 2622
65 | O=S(=O)(c1ccc(=S)[nH]c1)N1CCCCCC1 | -7 | 3910
66 | C[N+](C)(CCCCCC[N+](C)(C)CCCN1C(=O)c2cccc3cccc(c23)C1=O)CCCN1C(=O)c2cccc3cccc(c23)C1=O | -13 | 5154
67 | CCN1C[C@@H]2[C@@H]3C(=O)N(Cc4ccccc4)C(=O)[C@@H]3[C@](CC)(C1=O)N2C(=O)c1ccc(C(C)(C)C)cc1 | -24 | 3264
68 | COc1ccc([C@H]2CC(=O)C=C(c3cccc(Cl)c3)C2)cc1 | -9 | 3400
69 | COc1ccc(/C=N\NC(=O)c2ccc(-c3ccccc3)cc2)c(OC)c1OC | -14 | 4831
70 | CC1CCCCC1NC(=O)COC(=O)c1ccc2c(c1)OCCO2 (stereo unspecified) | -4 | 4087
71 | C=CC[C@H](CC(=O)NCCO)C(=O)N[C@H](C)COC(=O)[C@@H](CC=C)Cc1ccc(F)cc1 | 0 | 3452
72 | Cc1ccc(NC(=O)NC(=O)N(C(C)C)S(C)(=O)=O)nc1 | -17 | 1985
73 | CC1C(=O)NN=C1c1ccc([N+](=O)[O-])cc1 (stereo unspecified) | -8 | 3041
74 | CN=c1scc(-c2ccc(F)cc2)n1/N=C/c1ccc(O)c(O)c1 | 56 | 2665
75 | COc1ccc([C@@H]2CC=C(C(=O)O)[C@H](c3ccccc3)N2S(=O)(=O)c2ccccc2C)cc1 | -11 | 4190
76 | C=CC[C@@H](CC(=O)N[C@@H](CO)Cc1ccccc1)C(=O)NC[C@H](OC(=O)[C@@H](CC=C)Cc1ccc(F)cc1)c1ccccc1 | -18 | 4089
77 | COc1ccc(/C=N/n2c(N)nc3ccccc32)cc1OC | -34 | 5915
78 | O=C(O)/C(=C\c1c(C(=O)O)[nH]c2cc(Cl)cc(Cl)c12)c1ccccc1 | -28 | 4331
79 | O=C(NN=Cc1cc([N+](=O)[O-])ccc1O)c1cccc2ccccc12 | -17 | 3479
80 | CCCCCCOc1ccc(/C=N/NC(=O)C2CC2)cc1 | -18 | 6324
81 | C[C@@H](NC(=O)c1nc[nH]c1C(=O)NCc1ccc(CNC(=O)OC(C)(C)C)cc1)c1ccccc1 | -8 | 4019
82 | C=C[C@H](CC(C)C)N(Cc1ccccc1)S(=O)(=O)N(Cc1ccc(OC)cc1)[C@H](C=C)CC(C)C | -13 | 3572
83 | CC(C)(C)OC(=O)N(CCc1ccccc1)Cc1ccccc1OCc1ccc(NC(=O)C2CCCC2)cc1 | -12 | 3987
84 | O=c1[nH]c2cc([N+](=O)[O-])ccc2c2ccc([N+](=O)[O-])cc12 | 88* | 3554
85 | Cc1cccc(NC(=O)c2cnc3ccccn3c2=O)c1 | 17 | 5775
86 | O=C(Cc1ccccc1)c1ccc(N2CCOCC2)cc1 | -45 | 4126
87 | COc1ccc(NC(=O)Nc2cccc3c2O[C@H](CN(C)S(=O)(=O)c2ccccc2)[C@@H](C)CN([C@H](C)CO)C3=O)cc1 | -15 | 3836
88 | O=c1c(O)c(-c2ccccc2)oc2ccccc12 | -27 | 5182
89 | C[C@H](CO)N1C[C@H](C)[C@@H](CN(C)Cc2ccccc2)Oc2ccc(NC(=O)CCCCCC(=O)Nc3ccccc3N)cc2C1=O | -15 | 3789
90 | CC(C)n1cc(C#N)c(N)n1 | -3 | 3318

(list continues)
item | smiles | PrP 5UTR inh | Autofluor counter
91 | CCOC(=O)C1CC2=C(CCCC2=O)N(Cc2ccccc2)C1=O (stereo unspecified) | 10 | 3897
92 | CC1CN(S(=O)(=O)c2cccc(C(=O)NCC(c3cccs3)N3CCOCC3)c2)CC(C)O1 (stereo unspecified) | -15 | 3935
93 | CC(CO)NS(=O)(=O)c1ccc(Br)cc1F (stereo unspecified) | -8 | 3834
94 | CCCCCn1nc(-c2ccccc2)c2nc3ccccc3nc21 | -22 | 4862
95 | CCC(C)/C(C)=N/NC(=O)c1ccc(COc2ccc(Cl)c(C)c2)cc1 (stereo unspecified) | -2 | 2439
96 | CC(C(=O)O)c1cccc(Oc2ccccc2)c1 (stereo unspecified) | -20 | 5400
97 | C[C@H](OC(=O)n1ccnc1)[C@@H]1O[C@@]2(C)CCC[C@@H]1O2 | -8 | 3996
98 | O=C(C[C@@H]1C/C=C\C[C@@H](Cc2ccc(F)cc2)C(=O)OC[C@H]2CCCN2C1=O)NCCO | -30 | 3027

An excerpt; the hit share may differ from the screen's.
